# High-throughput results as filed in PubChem.
# HNF4A DNA FP = change in binding of human HNF4 alpha to DNA; P41235; HNF4a-FITC DNA binding, fluorescence polarization, 1 h; activity change, % at 10 µM; 360,000 tested, 0.3% active; in the data active means activity change above about 30%, passing the limit was not always enough;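 further: controls were the assay level and a saturating level of protein; the project sought stronger binding though the title names inhibitors; some compounds called inactive have numbers as strong as hits; positive values seem to mean higher polarization but the record does not say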
# RanGTP-Imp inh = inhibitors of RanGTP-importin-beta interaction, primary screen, biochemical, FRET, CFP-Ran, YFP-importin-beta, homogeneous; inhibition, % (concentration not given with the values); 300,000 tested, 1.1% active; cell-free CFP-Ran/YFP-importin-beta FRET ratio; AID 2216;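 active means most replicates above 15%; inconclusive means exactly half above 15%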;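 further: 0% = DMSO wells and 100% = Ran loaded with GDP instead of GTP; wells of about 40 µL received 100 nL stock; the first replicate is given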
# ALR H2O2 inh = inhibitors of human sulfhydryl oxidase ALR; purified ALR, DTT oxidation, H2O2 HRP-luminol luminescence; inhibition, % (no concentration beside the values); P55789; 290,000 tested, 3.8% active;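 active means mean and each replicate at 75% or more; inconclusive means only one of the two met; inactive means neither met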;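 further: stock transfer was 7.5 nL into about 7.5 µL; 0% = neutral wells and 100% = wells with inactivated enzyme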
# Vif TR-FRET = inhibitors of Vif binding to APOBEC3G peptide, primary screen, biochemical, TR-FRET, GST-Vif 1-94, biotin-A3G peptide, dose response retest (AID 1117319); inhibition, %, or IC50 in µM where a hit was titrated; 260,000 tested, 0.57% active; TR-FRET GST-Vif / biotin-A3G peptide binding; higher % means a stronger effect; test concentration not given here; strong numbers were not always called active;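 active means above the screen mean plus three standard deviations and confirmed in dose response; inconclusive means results disagree or hit not tested in dose response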;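 further: Vif residues 1-94 fused to GST binding biotinylated APOBEC3G peptide 110-148; 0% = full assay without inhibitor and 100% = GST in place of GST-Vif; retest series ran down from 100 µM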
# B2AR ag = agonists of human beta-2 adrenergic receptor inducing internalization | P07550 | Am2.2-beta2AR cells, FAP receptor internalization, flow cytometry; reference of the scale not given here | response, % (test concentration not listed) | 340,000 tested, 0.43% active;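 active means response above a set limit, near 3 SD of response in nonfluorescent compounds, cut at about 42% in these data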;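 further: stock transfer was 100 nL into about 11 µL; a reference agonist was the positive control; negative values mostly stem from fluorescent compounds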
# LANA-H2A inh = blocks KSHV LANA binding to histone H2A/H2B; cell-free LANA-H2A/H2B peptide, fluorescence polarization; Q9QR71; 320,000 tested, 0.6% active; AID 2629; inhibition, % (test concentration not listed); in the data active means inhibition mostly above about 10%, no sharp cut-off; inactive means mostly below about 6.7%;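 further: stock transfer was 7.5 nL into about 10 µL; 0% = median of vehicle wells and 100% = median of positive control wells; one replicate is shown; the record names a cut of 25% in any replicate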
# Calb FLC = C. albicans growth modulation with fluconazole | C. albicans CaCi-2 (fluconazole-resistant clinical isolate) + fluconazole, Alamar Blue growth, 48 h | growth inhibition, % (concentration not given with the values) | 300,000 tested, 0.57% active;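 active means most replicates above 75%; inconclusive means exactly half above 75%; inactive means most below 75%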;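 further: all wells also contain fluconazole at 8 µg/ml as a sub-toxic cotreatment; 0% = median of DMSO wells and 100% = median of geldanamycin control wells; wells of about 8 µL received 7.5 nL stock; the first replicate is given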
# An asterisk follows results filed as active; ? = inconclusive; . = not tested or not shown.
nr | SMILES | LANA-H2A inh | B2AR ag | Calb FLC | RanGTP-Imp inh | ALR H2O2 inh | Vif TR-FRET | HNF4A DNA FP
1 | CCC(C)(C)NC(=O)C(c1ccccn1)N(C(=O)c1csnn1)C1CCCCC1 (centres undefined) | 3.1 | 4 | -22 | 0.9 | -17 | 5% | 0.4
2 | CCOc1cccc(-c2c(C(=O)N/N=C/c3ccc(Br)cc3)nnn2-c2nonc2N)c1 | -4.7 | 1 | 4 | 3.8 | 1 | -2% | 2.9
3 | Fc1cccc(NC(=S)Nc2ccc(Br)cc2)c1 | -0.3 | 9 | -14 | 1.2 | -6 | 31% | -2.3
4 | NC(=O)c1ccc(OCC(F)(F)C(F)(F)C(F)(F)C(F)(F)C(F)(F)C(F)F)cc1 | -2.5 | 0 | -18 | -3.3 | -2 | 2% | -0.2
5 | CCOc1ccc(C(=O)NCCNC(=O)c2ccc(OCC)cc2)cc1 | -5.3 | 2 | 0 | -0.1 | 4 | . | -0.2
6 | CCOc1ccccc1CNC(=O)c1nn(CC)cc1[N+](=O)[O-] | 0.5 | -3 | -3 | ? | -2 | 12% | 0.0
7 | O=C(CCC1COc2ccccc2O1)NCc1ccco1 (centres undefined) | 1.6 | -4 | -5 | 2.1 | 3 | 5% | -0.3
8 | CCn1cc(C(=O)OCC(=O)Nc2cccc(Cl)c2Cl)c(=O)c2ccc(C)nc21 | -7.8 | 2 | 106* | -0.3 | 0 | -7% | -0.1
9 | CCCn1c(CN2CCN(C(=O)OCC)CC2)nc2c1c(=O)n(C)c(=O)n2C | 2.7 | -6 | 0 | -0.9 | -7 | -13% | 5.1
10 | CC(=O)Nc1ccc(NC(=O)CC2CCCC2)cc1 | -1.7 | 0 | -3 | -3.3 | 0 | . | 0.4
11 | CCCCCCNC(=O)c1cn(CC)c2cc(N3CCN(C)CC3)c(F)cc2c1=O | 7.0 | 17 | 72 | 0.3 | -17 | -3% | 7.5
12 | Cc1ccc(-c2cc(C(=O)NC3CCN(Cc4ccccc4)CC3)c3ccccc3n2)cc1 | -20 | 5 | 2 | . | 2 | . | 0.5
13 | CC(=O)NC(=O)COC(=O)c1ccc2ncsc2c1 | 3.6 | 1 | -2 | -0.3 | -26 | 0% | -1.0
14 | CC(C)(c1ccccc1)c1ccc(OCCCNCCO)cc1 | 2.8 | 19 | . | -0.8 | -3 | 7% | 1.4
15 | Cc1ccc(C(=O)C[n+]2ccc3ccccc3c2)cc1 | -0.7 | 3 | -31 | 2.0 | 18 | -1% | -2.1
16 | O=C(/C=C/Nc1ccccc1C(=O)O)c1cccs1 | -1.2 | -6 | 29 | -2.3 | -7 | . | 3.3
17 | Fc1cc2[nH]c(=S)[nH]c2c(Br)c1N1CCSCC1 | -2.6 | -3 | 0 | 4.0 | 9 | -3% | -0.9
18 | O=C(NCc1ccco1)c1cc(S(=O)(=O)N2CCOCC2)c(Cl)cc1Cl | . | -2 | -17 | -1.1 | . | 14% | -0.7
19 | O=C(Nc1ccc(Cl)cc1)[C@@H]1[C@@H]2C(=O)N(c3ccc(Cl)cc3)C(=O)[C@@H]2[C@H]2C=CC=NN21 | 3.6 | 1 | 14 | -0.6 | -2 | -2% | 5.2
20 | Cc1ccccc1OCC(=O)NNC(=O)Nc1ccc(Cl)cc1 | -2.9 | 10 | -3 | -2.3 | -18 | 12% | 1.4

# (next part)
nr | SMILES | LANA-H2A inh | B2AR ag | Calb FLC | RanGTP-Imp inh | ALR H2O2 inh | Vif TR-FRET | HNF4A DNA FP
21 | COC(=O)CSc1nnc(CNc2ccc(OC)cc2)n1C | 6.4 | 3 | 2 | ? | . | 7% | -0.5
22 | Cc1cc(C)cc(N(C(=O)c2sc(C)nc2C)C(C(=O)NCc2ccco2)c2ccccc2)c1 (centres undefined) | -5.1 | -1 | -7 | 0.3 | -2 | -11% | -0.4
23 | COc1ccc(CCNC(=O)c2cc3c(=O)n4ccccc4nc3n(C3CCCCC3)c2=N)cc1 | -2.2 | 9 | 6 | 63* | 0 | . | 2.0
24 | O=C(Cn1ncc(N2CCCC2)c(Br)c1=O)c1ccc(Cl)cc1 | -2.1 | -19 | -16 | 0.6 | 0 | -6% | 0.7
25 | Cc1cc(C)c(C)c(C(=O)CSc2nnc(-c3ccc4[nH]c(C)c(C)c4c3)o2)c1C | 4.2 | 6 | -8 | -2.5 | -2 | -14% | 2.0
26 | Nc1nc(SCC(=O)Nc2ccc(S(N)(=O)=O)cc2)n[nH]1 | -0.7 | 3 | -4 | 3.6 | 19 | 0% | 2.8
27 | CC1=C(C#N)C(NC(=O)c2ccc(C)cc2)(C(F)(F)F)C(=O)N1 (centres undefined) | -0.1 | -7 | -12 | 3.1 | -7 | 1% | -0.2
28 | CC(C)C(=O)Nc1ccc(-c2csc(-c3ccccc3)n2)cc1 | -8.8 | 1 | 5 | 3.0 | -13 | 4% | -3.8
29 | CC(C(=O)NCc1cccnc1)c1ccc([N+](=O)[O-])cc1 (centres undefined) | -15 | -2 | 7 | -0.8 | 8 | 5% | -0.9
30 | Fc1ccccc1CSc1nnnn1-c1ccc2c(c1)OCO2 | -1.6 | 0 | -11 | 0.7 | -11 | -4% | 2.2
31 | O=C1c2ccccc2C(=O)N1/N=C/c1ccc(Oc2ccc([N+](=O)[O-])cn2)cc1 | -1.3 | 2 | 1 | 5.4 | -10 | 9% | 0.6
32 | Cc1ccccc1-n1c(SCC(N)=O)nc2sc(-c3ccccc3)cc2c1=O | 3.8 | -2 | -5 | 0.1 | -10 | -6% | -0.9
33 | CCNC(=O)NC(=O)C(C)Sc1nc2ccccc2n1CC(C)C (centres undefined) | -0.8 | -1 | -16 | -6.5 | -6 | -2% | 0.9

# 3 entries already listed, sorted by number of heavy atoms, smallest number first.
nr | SMILES | LANA-H2A inh | B2AR ag | Calb FLC | RanGTP-Imp inh | ALR H2O2 inh | Vif TR-FRET | HNF4A DNA FP
28 | CC(C)C(=O)Nc1ccc(-c2csc(-c3ccccc3)n2)cc1 | -8.8 | 1 | 5 | 3.0 | -13 | 4% | -3.8
25 | Cc1cc(C)c(C)c(C(=O)CSc2nnc(-c3ccc4[nH]c(C)c(C)c4c3)o2)c1C | 4.2 | 6 | -8 | -2.5 | -2 | -14% | 2.0
22 | Cc1cc(C)cc(N(C(=O)c2sc(C)nc2C)C(C(=O)NCc2ccco2)c2ccccc2)c1 (centres undefined) | -5.1 | -1 | -7 | 0.3 | -2 | -11% | -0.4

# An excerpt of these results, with one line to a screen:
22: Cc1cc(C)cc(N(C(=O)c2sc(C)nc2C)C(C(=O)NCc2ccco2)c2ccccc2)c1 (centres undefined)
23: COc1ccc(CCNC(=O)c2cc3c(=O)n4ccccc4nc3n(C3CCCCC3)c2=N)cc1
24: O=C(Cn1ncc(N2CCCC2)c(Br)c1=O)c1ccc(Cl)cc1
25: Cc1cc(C)c(C)c(C(=O)CSc2nnc(-c3ccc4[nH]c(C)c(C)c4c3)o2)c1C
26: Nc1nc(SCC(=O)Nc2ccc(S(N)(=O)=O)cc2)n[nH]1
27: CC1=C(C#N)C(NC(=O)c2ccc(C)cc2)(C(F)(F)F)C(=O)N1 (centres undefined)
28: CC(C)C(=O)Nc1ccc(-c2csc(-c3ccccc3)n2)cc1
29: CC(C(=O)NCc1cccnc1)c1ccc([N+](=O)[O-])cc1 (centres undefined)

assay / compound	22	23	24	25	26	27	28	29
LANA-H2A inh	-5.1	-2.2	-2.1	4.2	-0.7	-0.1	-8.8	-15
B2AR ag	-1	9	-19	6	3	-7	1	-2
Calb FLC	-7	6	-16	-8	-4	-12	5	7
RanGTP-Imp inh	0.3	63*	0.6	-2.5	3.6	3.1	3.0	-0.8
ALR H2O2 inh	-2	0	0	-2	19	-7	-13	8
Vif TR-FRET	-11%	.	-6%	-14%	0%	1%	4%	5%
HNF4A DNA FP	-0.4	2.0	0.7	2.0	2.8	-0.2	-3.8	-0.9

30: Fc1ccccc1CSc1nnnn1-c1ccc2c(c1)OCO2
31: O=C1c2ccccc2C(=O)N1/N=C/c1ccc(Oc2ccc([N+](=O)[O-])cn2)cc1
32: Cc1ccccc1-n1c(SCC(N)=O)nc2sc(-c3ccccc3)cc2c1=O
33: CCNC(=O)NC(=O)C(C)Sc1nc2ccccc2n1CC(C)C (centres undefined)

assay / compound	30	31	32	33
LANA-H2A inh	-1.6	-1.3	3.8	-0.8
B2AR ag	0	2	-2	-1
Calb FLC	-11	1	-5	-16
RanGTP-Imp inh	0.7	5.4	0.1	-6.5
ALR H2O2 inh	-11	-10	-10	-6
Vif TR-FRET	-4%	9%	-6%	-2%
HNF4A DNA FP	2.2	0.6	-0.9	0.9
